KCNQ2 enhance: potentiators of rat KCNQ2 potassium channel | CHO-K1 KCNQ2, FluxOR thallium flux fluorescence; stronger effect = higher value | B-score at 10 µM | 310,000 tested, 0.54% active | AID 2239, 2010;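 active = fluorescence ratio B-score at least 3 SD of library B-scores, with initial fluorescence B-score within 3 SD, cut at about 5.3 in these data; same plate scores as AID 2156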;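 note: B-score of peak minus minimum over baseline fluorescence ratio after K+ and Tl+ stimulus; positive B-score means potentiation of KCNQ2 with more thallium influx and brighter signal; only the inactives scoring about 0 or higher are listed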
Target sequence (O88943 whole entry, looked up): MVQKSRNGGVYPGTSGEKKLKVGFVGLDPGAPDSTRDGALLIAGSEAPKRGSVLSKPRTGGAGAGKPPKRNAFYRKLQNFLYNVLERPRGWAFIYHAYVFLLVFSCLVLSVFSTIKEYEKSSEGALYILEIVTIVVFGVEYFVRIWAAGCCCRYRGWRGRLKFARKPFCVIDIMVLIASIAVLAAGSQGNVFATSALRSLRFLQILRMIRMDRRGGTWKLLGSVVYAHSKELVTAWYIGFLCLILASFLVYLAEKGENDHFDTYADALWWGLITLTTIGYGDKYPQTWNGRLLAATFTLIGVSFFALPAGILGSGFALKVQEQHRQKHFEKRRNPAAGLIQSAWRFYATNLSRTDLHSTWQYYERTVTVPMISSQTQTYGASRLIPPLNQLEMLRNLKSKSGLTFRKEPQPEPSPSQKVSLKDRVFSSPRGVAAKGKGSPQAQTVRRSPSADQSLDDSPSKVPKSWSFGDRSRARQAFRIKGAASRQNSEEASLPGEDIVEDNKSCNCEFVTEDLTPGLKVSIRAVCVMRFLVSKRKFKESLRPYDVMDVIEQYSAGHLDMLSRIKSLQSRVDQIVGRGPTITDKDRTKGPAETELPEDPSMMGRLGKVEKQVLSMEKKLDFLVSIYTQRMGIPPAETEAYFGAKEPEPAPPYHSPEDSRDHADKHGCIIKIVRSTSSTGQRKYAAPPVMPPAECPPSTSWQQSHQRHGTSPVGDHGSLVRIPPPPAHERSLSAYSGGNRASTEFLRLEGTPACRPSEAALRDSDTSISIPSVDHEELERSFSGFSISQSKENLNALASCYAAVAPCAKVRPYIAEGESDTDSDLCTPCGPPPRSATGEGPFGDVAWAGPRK
KCNQ2 enhance baseline: second read-out of KCNQ2 enhance, no call of its own (marks repeat the call); B-score; compound at 10 µM; measured here: initial fluorescence intensity artifact check;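 brightness before thallium and not channel activity; 0 = typical well and far values either way flag optical interference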
Active calls of the source: *.

#1 O=c1[nH]c(=O)n(Cc2ccc(F)cc2)c(O)c1C=NCCCN1CCOCC1
#2 O=C(Cc1ccccc1)Oc1cccc(N2C(=O)CCC2=O)c1
#3 O=c1[nH]c(=S)[nH]c(O)c1CN1CCCCC1
#4 CCOC(=O)C1=C(N)Oc2cc(C)oc(=O)c2C12C(=O)N1c3c(cc(OC)cc32)C(C)=CC1(C)C (centres undefined)
#5 Cc1ccc(C(C)C)c(OCC#CCN2CCCC2)c1
#6 O=C(COc1ccc(Cl)cc1Cl)N1CCN(C/C=C/c2ccccc2)CC1
assay / entry	1	2	3	4	5	6
KCNQ2 enhance	0.02	0.1	0.69	0.1	0.26	0.88
KCNQ2 enhance baseline	-0.6	1.9	-0.74	-0.42	-0.41	-0.54

#7 Cc1cc(/C=C2/C(=O)NC(=O)N(c3ccc(Br)cc3)C2=O)c(C)n1C
#8 CCOCCCN=Cc1c(O)n(Cc2ccccc2)c(=O)[nH]c1=O
#9 O=c1[nH]c(=S)n(Cc2ccco2)c(O)c1C=NCc1cccs1
#10 O=C1Nc2ccc(Br)cc2C(c2ccccc2Cl)=NC1O (centres undefined)
#11 Cc1cccc(CNCCc2ccccc2)n1
#12 CN1C(=O)NC(=O)C2(Cc3ccccc3N3CCOCC32)C1=O (centres undefined)
assay / entry	7	8	9	10	11	12
KCNQ2 enhance	0.05	1.1	0.9	0.55	0.12	1.6
KCNQ2 enhance baseline	-0.71	-0.57	0.69	0.08	0.57	0.59

#13 Cc1cc(OCC(=O)N2CCC(C(=O)O)(c3ccccc3)CC2)c2c(C)cc(=O)oc2c1
#14 COC(=O)CSC1=NN1c1cc(C)nc(N)n1
#15 Cc1nc2ccccc2c(=O)n1-c1ccccn1
#16 O=P(OCC(F)(F)C(F)F)(N1CCOCC1)N1CCOCC1
#17 CCOC(=O)c1c(C)[nH]c(C(=O)C(Cc2ccccc2)N(C)C)c1C (centres undefined)
#18 CCN(CC)CCNC(=O)c1c(O)c2ccccc2n(Cc2ccccc2)c1=O
assay / entry	13	14	15	16	17	18
KCNQ2 enhance	0.76	0.09	0.32	0.29	0.04	0.45
KCNQ2 enhance baseline	-0.62	0.2	-0.52	-0.63	-0.98	1.3

#19 O=C1CC(c2ccccc2)CN1 (centres undefined)
#20 COc1ccc(C2SCC(=O)Nc3c2c(C)nn3C2CCOC(C)(C)C2)cc1 (centres undefined)
#21 Cn1c(O)c(C=NCc2ccco2)c(=O)n(C)c1=O
#22 C=CCn1c(O)c(C=NCCN(C)C)c(=O)[nH]c1=O
#23 CC(=O)c1cc(C#N)c(N2CCN(C)CC2)nc1C
#24 O=C(COC(=O)Cc1ccccc1)Nc1cccnc1Cl
assay / entry	19	20	21	22	23	24
KCNQ2 enhance	0.73	0.43	0.54	0.71	1.4	1
KCNQ2 enhance baseline	0.88	0.19	-1.5	0.98	1	-0.63

#25 O=C1C2CCCC1C(N1CCCC1)CC2 (centres undefined)
#26 N=Cc1c(O)n(-c2ccccc2)c(=O)n(-c2ccccc2)c1=O
#27 CCOC(C(=O)OCCC[N+](C)(CC)CC)(c1ccccc1)c1ccccc1
#28 O=C(CCc1ccc(O)cc1)N1C[C@H]2C[C@@H](C1)c1cccc(=O)n1C2
#29 CC1CN=C(NCc2ccccc2Cl)S1 (centres undefined)
#30 OC(C#CCN1CCOCC1)(c1ccccc1)C1CCCC1 (centres undefined)
assay / entry	25	26	27	28	29	30
KCNQ2 enhance	1.3	0.07	0.92	0.54	0.05	0.2
KCNQ2 enhance baseline	0.04	-0.3	-0.01	0.24	-0.58	0

#31 C=C(CC1CC(O)[C@]2(C)OC3CC4OC5C[C@]6(C)O[C@]7(C)CCC8OC9C[C@]%10(C)OC%11C(C)=CC(=O)OC%11CC%10OC9C[C@@H](C)C8OC7CC6O[C@]5(C)C/C=C\C4OC3CC2O1)C(=O)O (some centres undefined)
#32 CCOc1ccccc1-n1c(O)c(C=NCCCn2ccnc2)c(=O)[nH]c1=O
#33 COc1cc(C)cc2oc(=O)c(CC(=O)N3C[C@H]4C[C@@H](C3)c3cccc(=O)n3C4)c(C)c12
#34 O=c1[nH]c(=O)n(-c2ccccc2)c(O)c1N=Nc1ccc(Br)cc1
#35 Cc1csc(NC(=O)C(Cl)c2ccccc2)n1 (centres undefined) (tested in a mixture with another compound)
#36 O=C(C(=O)N1CCOCC1)c1cn(Cc2ccc(F)cc2)c2ccccc12
assay / entry	31	32	33	34	35	36
KCNQ2 enhance	0.9	0.82	0.9	0.49	0.07	0.27
KCNQ2 enhance baseline	-0.89	0.08	0.33	-0.5	0.56	-0.75

A different layout for part of the listing above.
33. COc1cc(C)cc2oc(=O)c(CC(=O)N3C[C@H]4C[C@@H](C3)c3cccc(=O)n3C4)c(C)c12
  KCNQ2 enhance = 0.9
  KCNQ2 enhance baseline = 0.33

34. O=c1[nH]c(=O)n(-c2ccccc2)c(O)c1N=Nc1ccc(Br)cc1
  KCNQ2 enhance = 0.49
  KCNQ2 enhance baseline = -0.5

Continuation:
#37 Cc1c(N=Cc2c(O)n(Cc3ccco3)c(=O)[nH]c2=O)c(=O)n(-c2ccccc2)n1C
#38 Cc1ccc(-c2cc(-c3ccc(C)cc3)[n+](-c3ccc(C(=O)O)cc3)c(-c3ccc(C)cc3)c2)cc1
#39 O=C(CCn1nc(-c2ccc(Cl)cc2)ccc1=O)N1CCC2(CC1)OCCO2
#40 CC(=O)C1(c2ccccc2)CCNCC1
#41 CN(CC#CCN1CCCC1)C(=O)c1cccc(Cl)c1
#42 CC(C)C(=O)N1CCN(CCN=Cc2c(O)n(C)c(=O)n(C)c2=O)CC1
assay / entry	37	38	39	40	41	42
KCNQ2 enhance	1.8	0.83	0.47	0.01	0.3	0.25
KCNQ2 enhance baseline	-0.69	1.9	0.23	-1.5	0.02	1.4

#43 COc1cc(OC)c(OC)cc1CNCCc1ccc(F)cc1
#44 c1ccc2c(NC3=NCCS3)cccc2c1
#45 Cc1ccsc1C(=O)C1CCCN(Cc2c(C)nn(C(C)C)c2C)C1 (centres undefined)
#46 CCCCSP1(=S)NCCCO1 (centres undefined)
#47 CC(=O)c1cn(Cc2ccccc2C#N)c2ccccc12
#48 COc1ccc2nc(NC3=NCCN3)sc2c1
assay / entry	43	44	45	46	47	48
KCNQ2 enhance	0.41	1.2	0.11	0.01	0.6	0.22
KCNQ2 enhance baseline	0.05	-0.02	-0.35	-1.9	-0.43	-1.3

#49 O=C1Nc2ccc(Br)cc2C(c2ccc(Cl)cc2)=NC1O (centres undefined)
#50 CN1CCc2c(c(N3CCCCC3)nc3n[nH]c(N)c23)C1
#51 C#CCOc1cc(C2C3=C(COC3=O)Nc3cc4c(cc32)OCO4)ccc1OC (centres undefined)
#52 CN1C(=O)C(=Cc2cn(CC#N)c3ccccc23)C(=O)N(C)C1=O
#53 O=[N+]([O-])c1ccc(N2CCNCC2)cc1NC1CC1
#54 CC(C)Oc1cc(-n2c(=S)[nH]c3ccccc3c2=O)c(Cl)cc1Cl
assay / entry	49	50	51	52	53	54
KCNQ2 enhance	2.2	0.3	1.1	0.3	0.48	3.9
KCNQ2 enhance baseline	-0.29	-1.5	-1.1	-1.2	1.8	-1.2

In another format: entries from further up.
Results follow in this order: KCNQ2 enhance, KCNQ2 enhance baseline
20: COc1ccc(C2SCC(=O)Nc3c2c(C)nn3C2CCOC(C)(C)C2)cc1 (centres undefined)
    0.43, 0.19
21: Cn1c(O)c(C=NCc2ccco2)c(=O)n(C)c1=O
    0.54, -1.5
22: C=CCn1c(O)c(C=NCCN(C)C)c(=O)[nH]c1=O
    0.71, 0.98
23: CC(=O)c1cc(C#N)c(N2CCN(C)CC2)nc1C
    1.4, 1
24: O=C(COC(=O)Cc1ccccc1)Nc1cccnc1Cl
    1, -0.63
25: O=C1C2CCCC1C(N1CCCC1)CC2 (centres undefined)
    1.3, 0.04
26: N=Cc1c(O)n(-c2ccccc2)c(=O)n(-c2ccccc2)c1=O
    0.07, -0.3
27: CCOC(C(=O)OCCC[N+](C)(CC)CC)(c1ccccc1)c1ccccc1
    0.92, -0.01
28: O=C(CCc1ccc(O)cc1)N1C[C@H]2C[C@@H](C1)c1cccc(=O)n1C2
    0.54, 0.24
29: CC1CN=C(NCc2ccccc2Cl)S1 (centres undefined)
    0.05, -0.58
30: OC(C#CCN1CCOCC1)(c1ccccc1)C1CCCC1 (centres undefined)
    0.2, 0
31: C=C(CC1CC(O)[C@]2(C)OC3CC4OC5C[C@]6(C)O[C@]7(C)CCC8OC9C[C@]%10(C)OC%11C(C)=CC(=O)OC%11CC%10OC9C[C@@H](C)C8OC7CC6O[C@]5(C)C/C=C\C4OC3CC2O1)C(=O)O (some centres undefined)
    0.9, -0.89
32: CCOc1ccccc1-n1c(O)c(C=NCCCn2ccnc2)c(=O)[nH]c1=O
    0.82, 0.08
33: COc1cc(C)cc2oc(=O)c(CC(=O)N3C[C@H]4C[C@@H](C3)c3cccc(=O)n3C4)c(C)c12
    0.9, 0.33
34: O=c1[nH]c(=O)n(-c2ccccc2)c(O)c1N=Nc1ccc(Br)cc1
    0.49, -0.5

New compounds follow
#55 N#CC(C#N)=NNc1ccc(-n2ccc(C(F)(F)F)n2)cc1
#56 CCCC(C)(COC(N)=O)COC(=O)NC(C)C (centres undefined)
#57 NP(=O)(OCC(F)(F)F)Oc1cccc2ccccc12 (centres undefined)
#58 Cc1nc2ccccc2c(=O)n1/N=C/c1cc(Br)cc(Br)c1O
#59 C=CCn1c(O)c(C=Nc2ccc(OC)cc2C)c(=O)[nH]c1=O
#60 Cc1c(C(=O)N2CCC3(CC2)OCCO3)oc2ccc(S(=O)(=O)N3CCCCC3)cc12
assay / entry	55	56	57	58	59	60
KCNQ2 enhance	4.8	1.1	0.69	8.1*	0.07	2.3
KCNQ2 enhance baseline	-0.28	-0.48	-1.7	-0.18*	-0.12	-0.18

#61 CCOc1ccc(N2C(=O)CC(=O)NC2=O)cc1
#62 C=CC12CN(C)[C@@H]3C4CO[C@H](C[C@H]41)[C@]1(C(=O)Nc4ccccc41)[C@@H]32 (some centres undefined)
#63 COc1cccc(-n2c(C)nc3ccccc3c2=O)c1
#64 O=C(N/N=C/c1c(O)n(C2CCCCC2)c(=S)[nH]c1=O)c1ccccc1
#65 Nc1ccccc1C(=O)c1ccccc1
#66 CCc1nnc(NS(=O)(=O)c2ccc(N=Cc3c(O)n(-c4ccc(Cl)cc4)c(=O)[nH]c3=O)cc2)s1
#67 O=C1CC(=O)N(c2ccc3c(c2)OCO3)C(=O)N1
#68 Cc1ccc(C(O)P(=O)(Oc2ccccc2)Oc2ccccc2)cc1 (centres undefined)
assay / entry	61	62	63	64	65	66	67	68
KCNQ2 enhance	2.4	0.14	1.3	2.3	1	0.33	0.68	1.3
KCNQ2 enhance baseline	-1.8	0.63	-0.91	-1.9	0.04	0.98	-2	-0.56

High-throughput results (PubChem)

This is a subset; rates above refer to the full screens.
